PABP FP inh: PABP poly(A) RNA binding inhibitors, primary screen, biochemical, fluorescence polarization, uHTS | Polyadenylate-binding protein 1 (Homo sapiens), P11940 | inhibition, % at 35 µM | 290,000 tested, 1% active | AID 2014, 2009;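 active = 50% or more with normal probe brightness, or confirmed in later tests; inconclusive = above 50% with abnormal brightness, or retests that disagree; inactive = below 50% or failed in later tests; about a fifth of its hits are not listed in these tables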;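 also: calls also rest on retests at 20 µM and on dose response follow-up; controls were probe without protein and protein plus probe with vehicle; some compounds called inactive have numbers as strong as hits; many hits fall short of the cut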
CSC inhib: cancer stem cell viability inhibitors, primary screen, luminescence; inhibition, % at 7.5 µM; AID 2717, 2010; 300,000 tested, 1.1% active; cancer stem cell-like cells viability;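 active = mean at 75% or more and at least half the replicates too; inconclusive = mean and replicates disagree; tested in HMLE shEcad cells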;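 also: 0% = median of negative and 100% = median of positive control wells; the first replicate is given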
Rce1 inh: yeast Rce1p protease inhibitors, primary screen, biochemical, fluorescence, cell-free homogeneous; CAAX prenyl protease 2 (Saccharomyces cerevisiae (strain ATCC 204508 / S288c)), Q03530; yeast membranes, quenched prenylated peptide cleavage fluorescence; calls only; 290,000 tested, 0.27% active; AID 2563, 2010;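 active = fall in fluorescence gain of 50% or more versus controls, with final raw signal at or below 3038400; inconclusive = same 50% fall but final raw signal above 3038400; inactive = fall in fluorescence gain under 50%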;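 also: plate controls were neutral control wells for no effect and wells lacking membranes for full effect; tested at 10 µM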
Target sequence (Q03530 whole entry, looked up): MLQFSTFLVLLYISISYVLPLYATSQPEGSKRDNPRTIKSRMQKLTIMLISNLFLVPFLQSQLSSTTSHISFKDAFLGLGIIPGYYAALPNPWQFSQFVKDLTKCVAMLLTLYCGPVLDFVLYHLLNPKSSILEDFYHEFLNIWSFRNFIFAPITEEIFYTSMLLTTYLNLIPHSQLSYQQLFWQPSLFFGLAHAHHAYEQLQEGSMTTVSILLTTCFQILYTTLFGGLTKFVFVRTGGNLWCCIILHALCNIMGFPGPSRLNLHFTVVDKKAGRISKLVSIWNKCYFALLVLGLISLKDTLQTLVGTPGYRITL
Env fusion inh: inhibitors of HIV-1 Env-driven cell-cell fusion, primary screen, HeLa-JRFL effector, CEM21 target cells, luciferase; inhibition, % at 12.3 µM; 360,000 tested, 1.1% active;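 active = mean replicate inhibition score of at least 50 and every replicate individually at or above 50; inconclusive = only one of the two criteria met; inactive = mean below 50 and not all replicates reaching 50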;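 also: 0% = plate neutral controls and 100% = maraviroc near 300 nM; one replicate is shown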
MT1-MMP act inh: blockers of MT1-MMP proenzyme processing, primary screen, HT1080 RFP-PRO-GFP cells, GFP/RFP fluorescence; GFP/RFP ratio fluorescence, overnight; percent of plate control window, DMSO zero; GFP/RFP ratio change, % at 20 µM; 360,000 tested, 0.061% active; AID 651647, 2012;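 active = GFP/RFP ratio change of at least 30% with cell ATP level not reduced by more than half and red fluorescence within 50% of control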; also: strong numbers were not always called active
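system = RFP-PRO-GFP reporter HT1080 cells | dosing = 20 µM single dose, 1% DMSO | timing = overnight cell settling, then overnight compound exposure, 37 °C, 5% CO2 | read-out basis = GFP/RFP fluorescence ratio | controls = DMSO and RFP-L50D-GFP cell wells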
eIF4H inh: human eIF4H binding inhibitors, primary screen, translation initiation inhibitor project, biochemical, uHTS, fluorescence polarization. Eukaryotic translation initiation factor 4H (Homo sapiens), Q15056. eIF4H fluorescence polarization binding assay. inhibition, % at 35 µM. 290,000 tested, 0.94% active. AID 2012, 2009;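 active = 50% or more with normal probe brightness, or confirmed in later tests; inconclusive = above 50% with abnormal brightness, or retests that disagree; inactive = below 50% or failed in later tests; about a fifth of its hits are not listed in these tables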;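 also: calls also rest on retests at 20 µM and on dose response follow-up; 0% = protein and probe with vehicle and 100% = probe without protein; strong numbers were not always called active; many hits fall short of the cut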
UUG fidelity: modulators of yeast start codon fidelity, primary screen, whole organism, S. cerevisiae, single point, plate reader. activity score, % at 18.7 µM. AID 602363, 2012. 350,000 tested, 0.13% active. S. cerevisiae UUG-firefly luciferase reporter, luminescence/redox ratio;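 active = replicate mean at a twofold rise or more, about +100% in these data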;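 also: firefly luciferase made from a UUG start codon reports start codon fidelity; reporter light over untreated wells divided by growth signal over untreated wells; some hits fall short of that in this replicate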
eIF4H inh retest: also measured in eIF4H inh; calls as there; inhibition, %; compound at 20 µM; confirmation average;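 mean of two retest wells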
PABP FP inh retest: also measured in PABP FP inh; calls as there; inhibition, %; compound at 20 µM; confirmation repeats;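 mean of two retest wells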
MT1-MMP act inh RFP: also measured in MT1-MMP act inh; calls as there; RFP signal change, %; measured here: RFP expression control read;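 0 = vehicle wells; hits needed this value within 50% of zero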
The depositor's hits bear a star; i = inactive; ? = inconclusive; . = no result given; + = active, no number.

SMILES	PABP FP inh	CSC inhib	Rce1 inh	Env fusion inh	MT1-MMP act inh	MT1-MMP act inh RFP	eIF4H inh	UUG fidelity	others
CC1CCCCN1S(=O)(=O)c1ccc(C(=O)Nc2nnc(-c3ccccc3Cl)o2)cc1 (stereo not given)	6.3	42.0	i	.	1.3	-6.2	14.5	-11.0
Fc1ccc(CSc2ccc3nnc(-c4ccccn4)n3n2)cc1	-10.8	29.5	i	9.5	-0.4	-3.1	-6.3	.
COC(=O)CN1C(=S)N(c2ccc(OC)cc2)C(=O)C1CC(=O)Nc1ccc(F)cc1 (stereo not given)	-1.0	-3.8	i	-23.3	1.2	9.9	1.2	.
C#CCOCCOCCOCCNc1nc(N2CCOCC2)nc(N2CCN(C(=O)CCCCCCCCCCNC(=O)[C@@H](CCC(=O)O)n3cc(CCCCCN)nn3)CC2)n1	.	-11.5	.	-0.8	-1.4	1.8	.	5.1
Cc1ccccc1N1C(S)=C(C#N)C(=O)NC1c1ccco1 (stereo not given)	29.7	-11.9	i	1.1	-10.0	-1.5	60.4	-31.8	eIF4H inh retest=-1.7;PABP FP inh retest=3.0
CC(C)NC(=O)N1CCN(c2ccncc2S(=O)(=O)N2CCCCC2)CC1	-6.6	-6.9	.	-11.9	-3.7	0.3	-6.4	8.3
Clc1cccc(NCc2nnc(SCc3ccc(Cl)cc3Cl)o2)c1	5.0	1.3	i	.	4.9	1.4	1.6	2.6
CCCCC1C(C#N)=C(C)NC2=C1C(=O)CC(C)(C)C2 (stereo not given)	-6.4	3.4	i	-4.1	-1.9	-7.5	-4.1	-14.3
CCN1C(=O)[C@H]2[C@@H](c3ccc(-c4ccc5c(c4)OCO5)c(OC)c3)N[C@@](Cc3ccccc3)(C(=O)OC)[C@H]2C1=O	.	-8.6	i	-6.2	-2.2	-10.4	.	8.9
CCOC(=O)CC(=O)CSc1nc2c(c(-c3cccs3)c1C#N)CCC2	-1.8	-9.0	.	9.1	-1.1	4.0	16.3	-13.0
COC(=O)c1ccc(N)c(N=CC2=C(O)CC(C)(C)CC2=O)c1	17.1	7.0	i	15.0	-105.7	13.2	?	-27.5
CC(O)(c1ccc(F)c(F)c1)c1nc(-c2cccc3cccnc23)cs1 (stereo not given)	.	.	.	-5.9	0.8	2.3	.	6.9
CCN(CC)CCn1nc2c3c(cccc3c1=O)-c1ccccc1-2	7.5	105.2*	i	-234.3	3.6	-0.3	-9.8	.
CCOC(=O)c1c(C)[nH]c(C)c1C(=O)COC(=O)c1cc(OC)c(OC)cc1OC	17.6	-1.5	i	10.9	2.3	7.7	-9.2	.
CCCC(=O)Nc1ccc(-c2cn3cccnc3n2)cc1	4.9	-15.6	?	-17.4	3.4	4.6	3.2	.
C=CCNC(=O)c1ccccc1NC(=O)c1ccc(Cl)c(S(=O)(=O)Nc2cc(C)ccc2C)c1	-3.2	21.6	i	.	-4.3	-12.6	-8.0	16.5
C[C@H](NC(=O)c1ccccc1F)C(=O)N1CCC2(CC1)NCCc1[nH]cnc12	.	-16.2	i	6.8	2.3	1.6	.	-17.2
Cc1cccc(NC(=O)/C(C#N)=C/c2ccccc2O)n1	8.7	.	i	-12.8	-4.3	-8.3	0.7	4.6
Cc1cc(=O)oc(C)c1C(=O)NCCCN1C(C)CCCC1C (stereo not given)	18.8	-8.0	i	-3.4	-7.3	2.2	8.2	.
Cc1nnc(SCC(=O)NC(=O)NC(C)(C)C)n1N	-0.4	12.0	i	-55.1	4.4	3.3	7.6	-21.0
NC(=O)c1c(NC(=O)CN2CCCC2)sc2c1CCCC2	5.4	-2.5	i	.	-2.5	-3.9	3.5	-15.7
Cc1cc(C)c(S(=O)(=O)NCc2ccc3c(c2)OCO3)cc1C	11.2	-12.2	i	-13.7	0.9	-6.8	-5.9	-4.8
COc1ccc(/C=C/C(=O)NCCCN2CCCC2)cc1	6.7	-2.6	i	-8.1	-3.7	-2.9	-5.1	-3.0
O=C(O)/C=C/C(=O)Nc1ccccc1SC(F)(F)F	10.5	-3.9	i	-46.8	-5.6	0.6	6.3	0.2
FC(F)c1nnc2c(Cl)cc(C(F)(F)F)cn12	3.6	-0.9	i	-3.5	-1.1	1.2	-3.0	.
Continuation.
SMILES	PABP FP inh	CSC inhib	Rce1 inh	Env fusion inh	MT1-MMP act inh	MT1-MMP act inh RFP	eIF4H inh	UUG fidelity	others
CC(=O)Nc1ccc(Nc2nc(Cl)nc(Nc3ccc(NC(C)=O)cc3)n2)cc1	-10.5	-6.8	i	-36.5	3.7	-0.5	-13.8	.
COc1ccc(-c2noc(CN(C)C(=O)Nc3ccccc3)n2)cc1	-2.8	-12.2	.	9.7	0.2	-4.2	11.3	.
Cc1ccc(OCc2nnc(SCCN3CCOCC3)n2C)cc1	-1.1	-10.3	i	-15.8	7.2	0.6	3.6	-9.3
CC1CN(C(=O)CCNC(=O)c2ccc(Cl)cc2)CC(C)O1 (stereo not given)	-7.1	.	i	?	-3.4	3.3	-2.0	-19.9
Cc1sc2ncn(CCC(=O)O)c(=O)c2c1C	9.7	-3.7	i	.	-1.4	1.3	-3.0	-17.5
COc1ccc(OC)c(NC(=O)CSc2nnc(Cn3c(=O)sc4ccccc43)n2C)c1	-11.8	-27.7	.	8.8	2.3	3.4	7.5	-12.4
O=C(Nc1nccs1)C1Cc2ccccc2CN1S(=O)(=O)c1ccc(F)cc1 (stereo not given)	11.6	-5.6	i	-31.7	-12.8	-2.1	-8.0	-20.9
CCOC(=O)C1CCN(C(=O)COC(=O)CNS(=O)(=O)c2ccc(SC)c([N+](=O)[O-])c2)CC1	.	.	.	4.5	2.7	2.0	.	-14.0
O=C(NC1CCCC1)c1ccc(CS(=O)Cc2ccccc2Cl)o1 (stereo not given)	1.4	-8.7	i	-19.7	1.4	5.9	-2.9	0.9
CCOC(=O)/C(C(N)=NCCO)=C(/O)c1ccccc1	-6.0	.	i	18.6	9.6	6.1	4.0	-1.4
Cc1ccc(NC(=O)Nc2ccc(F)cc2)cc1Cl	3.6	1.1	i	1.6	4.1	-0.7	-7.9	35.4
CCCOc1ccc(/C=C/C(=O)Nc2ccc([N+](=O)[O-])cc2C)cc1OC	1.8	-6.6	i	19.7	5.6	-0.8	9.1	-34.2
Cc1cccc(N/N=C2/COC(C)(C)CC2=O)c1	-7.5	1.1	i	-89.1	-1.5	0.5	3.9	-7.6
COc1ccc(N(C(=O)c2snc(C(N)=O)c2N)C(C(=O)NC2CCCC2)c2ccco2)cc1 (stereo not given)	1.6	.	i	8.9	-0.7	1.5	-4.0	-0.4
N#CC1(C#N)C(C(=O)C23CC4CC(CC(C4)C2)C3)C12CCOCC2 (stereo not given)	4.3	-5.5	i	29.4	-3.0	-1.0	-5.5	.
COc1ccccc1NS(=O)(=O)c1ccc2c(c1)n(C)c(=O)n2C	2.4	2.6	i	.	4.6	-2.9	0.9	-15.9
COC(=O)[C@@H]1C[C@@]2(O)[C@@H](O)[C@@H](O)[C@@H](O)C[C@H]2N1Cc1cc(OC)cc(OC)c1	2.2	1.2	i	-3.8	4.6	5.4	-4.7	-3.6
CC(=O)c1c(C)[nH]c(C(=O)COC(=O)c2c(-c3ccccc3)noc2C)c1C	.	-1.3	.	25.6	-17.8	-17.9	.	-15.6
CS(=O)(=O)N(CC(=O)NC1CCCCCC1)Cc1ccccc1	-5.4	-16.2	i	.	0.4	2.7	-7.7	-4.1
O=C(C[n+]1ccccc1)N/N=C/c1cccc(Cl)c1Cl	5.1	-8.6	i	0.8	-2.6	-1.8	4.7	-10.4
Nc1ccc2c(c1)C(=O)C(=O)c1ccccc1-2	28.4	-5.2	i	.	-35.7	-39.9	10.4	.
O=C(CNCc1ccc(F)cc1)Nc1ccccc1-c1ccccc1	-5.7	.	i	20.2	-2.0	-3.1	-5.7	6.8
CCNC(=S)N/N=C/c1ccc(-c2ccccc2)o1	-3.7	.	i	.	-1.2	0.6	0.6	.
CC(C)CC(=O)N1CCN(Cc2ccccc2Br)CC1	-3.1	-4.5	i	7.0	-0.1	-0.4	3.4	-6.1
O=C(NCCC1=CCCCC1)c1ccc([N+](=O)[O-])cc1	51.6	-1.0	i	-34.6	2.7	3.7	-5.2	.	eIF4H inh retest=-1.1;PABP FP inh retest=1.0

Molecules above that contain a CF3 group (two):
SMILES	PABP FP inh	CSC inhib	Rce1 inh	Env fusion inh	MT1-MMP act inh	MT1-MMP act inh RFP	eIF4H inh	UUG fidelity	others
O=C(O)/C=C/C(=O)Nc1ccccc1SC(F)(F)F	10.5	-3.9	i	-46.8	-5.6	0.6	6.3	0.2
FC(F)c1nnc2c(Cl)cc(C(F)(F)F)cn12	3.6	-0.9	i	-3.5	-1.1	1.2	-3.0	.

(more compounds)
SMILES	PABP FP inh	CSC inhib	Rce1 inh	Env fusion inh	MT1-MMP act inh	MT1-MMP act inh RFP	eIF4H inh	UUG fidelity	others
O=C(Nc1ccccc1C(=O)O)c1ccc(Br)o1	3.2	.	i	.	8.1	-0.8	-2.7	-6.5
CCc1nnc(NC(=O)c2ccc(COc3ccccc3C)o2)s1	12.1	3.5	i	6.7	0.3	0.6	0.6	-11.8
COCOc1ccc(-c2oc3c(C/C=C(\C)CCC=C(C)C)ccc(O)c3c(=O)c2OCOC)c(OCOC)c1	.	-6.0	i	.	-7.7	-7.9	.	-16.1
COc1ccc(CNC(=O)COC(=O)[C@H](Cc2c[nH]c3ccccc23)NC(=O)c2cccs2)cc1	-3.2	.	i	.	-1.0	3.9	-5.0	0.6
COc1cc(C2SCC(=O)N2CCN2CCCCC2)ccc1O (stereo not given)	5.5	-8.1	i	3.6	-6.8	0.4	-7.9	-5.2
Cc1nc(-c2ccc(S(=O)(=O)Nc3cc(S(=O)(=O)N(C)C)ccc3C)s2)cs1	-0.4	1.4	i	-2.7	2.8	-3.8	-0.8	.
COc1ccc(-c2ccc(-c3noc(-c4ccccc4OC)n3)c(OC)n2)cc1	50.5	12.6	i	.	-4.3	-4.0	43.1	.	eIF4H inh retest=6.8;PABP FP inh retest=28.1
CCOc1ccc(NC(=O)CSc2nc3nc4c(cc3c(=O)n2CC)COC(C)(C)C4)cc1	3.1	-5.2	i	12.2	.	.	-7.0	.
CCCn1nc(C(=O)NNC(=O)CSCC(=O)Nc2cc(C)on2)c2ccccc2c1=O	.	8.8	i	11.0	0.2	3.8	.	.
O=C(N1CCN(c2cccc(Cl)c2)CC1)C1(S(=O)(=O)c2ccc(Cl)cc2)CC1	-4.6	4.2	.	-61.3	-4.8	-2.7	-4.3	.
CCCCc1nc2cc(C(=O)NC3CCOC(C)(C)C3)ccc2o1 (stereo not given)	-3.8	-13.8	i	1.5	3.7	1.7	-8.7	5.7
COC(=O)c1ccc(COC(=O)CNC(=O)c2ccco2)cc1	-8.6	-9.1	i	-55.6	3.2	6.9	-9.4	-12.4
O=C(NCc1ccccc1)C1CCCC1	9.3	-1.9	i	.	.	.	7.0	.
O=C(c1ccc(Oc2ccc(C(F)(F)F)cn2)cc1)N1CCN(c2ccccc2)CC1	-3.2	18.6	i	1.7	2.0	-5.2	5.8	1.0
CC(=O)NN1C(=O)c2ccccc2NC1c1ccccc1 (stereo not given)	-3.1	.	+	16.0	0.6	4.2	-4.1	-8.0
